Vif A3G = inhibitors of Vif binding to APOBEC3G peptide, primary screen, biochemical, TR-FRET, GST-Vif 1-94, biotin-A3G peptide, dose response retest (AID 1117319); hit rate 0.57% among 260,000; TR-FRET GST-Vif / biotin-A3G peptide binding; higher % means a stronger effect; test concentration not given here; strong numbers were not always called active; one-dose inhibition, %; IC50 in µM for titrated hits; Virion infectivity factor (Human immunodeficiency virus type 1 group M subtype B (isolate …;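 active = above the screen mean plus three standard deviations and confirmed in dose response; inconclusive = results disagree or hit not tested in dose response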;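 note: Vif residues 1-94 fused to GST binding biotinylated APOBEC3G peptide 110-148; 0% = full assay without inhibitor and 100% = GST in place of GST-Vif; retest series ran down from 100 µM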
B2AR ag = beta2AR agonists driving receptor internalization, primary screen, cell-based, FAP fluorogen, flow cytometry. Beta-2 adrenergic receptor (Homo sapiens), P07550. hit rate 0.43% among 340,000. Am2.2-beta2AR cells; reference of the scale not given here. response, % (no concentration beside the values);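 active = response above a set limit, near 3 SD of response in nonfluorescent compounds, cut at about 42% in these data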;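 note: stock transfer was 100 nL into about 11 µL; a reference agonist was the positive control; negative values mostly stem from fluorescent compounds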
LANA-H2A inh = blockers of LANA interaction with H2A/H2B – biochemical, FP readout, HTS, primary screen | hit rate 0.6% among 320,000 | inhibition, % (no concentration beside the values) | AID 2629, 2010 | cell-free LANA-H2A/H2B peptide, fluorescence polarization | Protein LANA1 (Human herpesvirus 8 type P (isolate GK18)), Q9QR71; in the data active = inhibition mostly above about 10%, no sharp cut-off; inactive = mostly below about 6.7%;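 note: stock transfer was 7.5 nL into about 10 µL; 0% = median of vehicle wells and 100% = median of positive control wells; one replicate is shown; the record names a cut of 25% in any replicate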
Target sequence (Q9QR71 whole entry, looked up): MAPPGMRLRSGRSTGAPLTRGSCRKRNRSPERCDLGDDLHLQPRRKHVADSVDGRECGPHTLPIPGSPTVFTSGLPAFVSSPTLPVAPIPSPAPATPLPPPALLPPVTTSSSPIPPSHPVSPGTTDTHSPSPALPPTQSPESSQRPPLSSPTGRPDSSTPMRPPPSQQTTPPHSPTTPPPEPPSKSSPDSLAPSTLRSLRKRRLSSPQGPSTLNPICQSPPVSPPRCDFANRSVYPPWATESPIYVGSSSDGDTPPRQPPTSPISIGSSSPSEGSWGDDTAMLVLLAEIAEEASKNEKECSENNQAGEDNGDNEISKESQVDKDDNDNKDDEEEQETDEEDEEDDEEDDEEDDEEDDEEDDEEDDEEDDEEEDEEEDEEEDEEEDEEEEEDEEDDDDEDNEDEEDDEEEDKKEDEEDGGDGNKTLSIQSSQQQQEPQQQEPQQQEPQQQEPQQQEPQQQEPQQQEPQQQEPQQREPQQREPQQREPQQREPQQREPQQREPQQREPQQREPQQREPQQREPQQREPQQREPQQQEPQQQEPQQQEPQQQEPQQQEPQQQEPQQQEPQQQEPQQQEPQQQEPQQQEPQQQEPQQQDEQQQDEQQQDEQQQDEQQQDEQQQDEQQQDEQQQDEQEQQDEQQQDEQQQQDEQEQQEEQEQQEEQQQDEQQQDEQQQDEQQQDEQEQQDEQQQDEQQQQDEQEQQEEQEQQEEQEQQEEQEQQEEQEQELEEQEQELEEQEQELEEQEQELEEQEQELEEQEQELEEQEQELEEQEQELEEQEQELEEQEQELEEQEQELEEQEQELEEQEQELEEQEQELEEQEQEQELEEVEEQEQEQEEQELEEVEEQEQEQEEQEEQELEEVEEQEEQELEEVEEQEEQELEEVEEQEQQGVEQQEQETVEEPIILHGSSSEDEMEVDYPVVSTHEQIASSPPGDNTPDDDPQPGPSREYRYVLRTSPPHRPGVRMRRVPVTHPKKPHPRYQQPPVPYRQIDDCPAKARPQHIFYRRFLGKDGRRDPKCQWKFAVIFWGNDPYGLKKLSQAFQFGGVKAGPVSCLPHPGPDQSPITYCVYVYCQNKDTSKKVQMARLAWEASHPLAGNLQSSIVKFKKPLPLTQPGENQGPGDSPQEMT
HNF4A DNA FP = change in binding of human HNF4A to DNA, primary screen, biochemical, fluorescence polarization, FITC-DNA; 1 h; Hepatocyte nuclear factor 4-alpha (Homo sapiens), P41235; hit rate 0.3% among 360,000; AID 1224865, 2016; activity change, % at 10 µM; in the data active = activity change above about 30%, passing the limit was not always enough;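 note: controls were the assay level and a saturating level of protein; the project sought stronger binding though the title names inhibitors; some compounds called inactive have numbers as strong as hits; positive values seem to mean higher polarization but the record does not say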
RanGTP-Impb inh = inhibitors of RanGTP-importin-beta interaction, primary screen, biochemical, FRET, CFP-Ran, YFP-importin-beta, homogeneous; Ran GTPase (GTP-bound) - importin-beta complex; hit rate 1.1% among 300,000; inhibition, % (no concentration beside the values); cell-free CFP-Ran/YFP-importin-beta FRET ratio;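 active = most replicates above 15%; inconclusive = exactly half above 15%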;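 note: 0% = DMSO wells and 100% = Ran loaded with GDP instead of GTP; wells of about 40 µL received 100 nL stock; the first replicate is given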
Calb FLC = C. albicans growth inhibition with fluconazole, primary screen, CaCi-2 strain, Alamar Blue fluorescence; C. albicans CaCi-2 (fluconazole-resistant clinical isolate) + fluconazole, 48 h; growth inhibition, % (concentration not given with the values); hit rate 0.57% among 300,000; AID 1979, 2009;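 active = most replicates above 75%; inconclusive = exactly half above 75%; inactive = most below 75%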;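 note: all wells also contain fluconazole at 8 µg/ml as a sub-toxic cotreatment; 0% = median of DMSO wells and 100% = median of geldanamycin control wells; wells of about 8 µL received 7.5 nL stock; the first replicate is given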
ALR H2O2 inh = inhibitors of human ALR sulfhydryl oxidase, primary screen, biochemical, H2O2 detection, HRP-luminol luminescence, single point | FAD-linked sulfhydryl oxidase ALR (Homo sapiens), P55789 | purified ALR, DTT oxidation | inhibition, % (concentration not given with the values) | hit rate 3.8% among 290,000 | AID 485317, 2010;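 active = mean and each replicate at 75% or more; inconclusive = only one of the two met; inactive = neither met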;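 note: stock transfer was 7.5 nL into about 7.5 µL; 0% = neutral wells and 100% = wells with inactivated enzyme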
The depositor's hits bear a star; ? = inconclusive; · = not tested or not shown; & = joins results of further samples.

structure	Vif A3G	B2AR ag	LANA-H2A inh	HNF4A DNA FP	RanGTP-Impb inh	Calb FLC	ALR H2O2 inh
COc1ccc(C(CNC(=O)c2cc(S(=O)(=O)NCc3ccccc3)ccc2C)N2CCOCC2)cc1 (centres undefined)	-4%	-4	-1.3	1.5	5.5	3	-22
Cc1nc2ncnn2c(C)c1CCC(=O)O	25%	2	0.6	-2.8	0.5	2	-7
COc1ccc(NC(=O)CC(C)c2ccccc2)c([N+](=O)[O-])c1 (centres undefined)	2%	-1	-0.8	-4.2	1.7	8	-4
COc1ccc(Oc2c(Cl)cnn(-c3ccc(F)cc3)c2=O)cc1	-4%	27	2.0	-1.4	-3.9	5	-5
COc1ccc(C(=O)Nc2nccs2)cc1	·	3	0.7	1.1	-0.8	-3	-14
CCC(SC1=NCCS1)C(=O)Nc1nnc(-c2ccccc2OC)s1 (centres undefined)	21%	14	1.0	6.1	5.9	-2	-3
Cc1ccc(C(NC(=O)N2CCCC2)C(Cl)Cl)cc1F (centres undefined)	-8%	0	-0.1	-2.5	5.6	10	-8
COC(=O)/C=C1/S/C(=N/NC(=O)c2ccc(OC)cc2)NC1=O	·	2	8.8	1.1	6.2	-2	6
Cc1ccc(C(=O)Nc2onc(C)c2C#N)cc1	?	-4	3.0	-3.4	-1.7	0	10
COc1ccc(-c2nnc(NC(=O)c3ccc(F)cc3)o2)cc1	22%	4	0.1	-0.2	2.5	92*	22
CCOC(=O)[C@H]1[C@H]2COc3ccc(C)cc3[C@@H]2N2C(=O)CN(Cc3ccc(Cl)cc3)C(=O)[C@@]12C	·	5	-0.5	-1.4	·	·	4
O=C(CCNC(=O)c1ccco1)Nc1ccc(OC(F)(F)F)cc1	·	3	9.7	2.3	1.7	-10	·
COc1ccc(Cc2c(C)nc(N)nc2Cl)cc1	·	7	2.8	5.8	5.4	-17	-5
CCCCNC(=O)CCn1nc(-c2ccccc2)ccc1=O	0%	-10	-2.3	1.5	6.0	7	-6
CCCCn1c(SCC(=O)Nc2nnc(C)s2)nnc1-c1ccoc1C	1%	-2	-3.8	-1.1	1.3	-4	-2
COC(=O)CSc1ccc(S(=O)(=O)N2CCC(C)CC2)cc1[N+](=O)[O-]	9%	9	-3.5	-0.1	-2.3	21	-3
COc1cccc(-c2noc(-c3ccc(Br)o3)n2)c1	-16%	-4	3.3	3.0	·	-2	-4
COc1ccc(Cl)cc1NC(=O)CSc1nnc(CN2CCOCC2)n1-c1ccc(Cl)cc1	-4%	-10	-1.7	0.7	-2.7	-9	-2
Cc1ccc(CNC(=O)CS(=O)Cc2nc(-c3cccs3)oc2C)cc1 (centres undefined)	2%	5	-4.0	2.4	0.8	12	99*
O=C(COc1ccc(-n2cnnn2)cc1)Nc1ccccc1OC(F)F	·	-1	-1.0	-3.9	·	·	18
Cc1ccccc1NC(=O)c1cc(S(=O)(=O)N2CCOCC2)cn1C	·	-3	-1.6	1.4	2.6	-11	-8
O=C(CNC(=O)c1ccc(N2CCCC2=O)cc1)Nc1ccc(F)c(F)c1F	7%	2	4.6	-0.4	·	·	-1
CCCN(CC(=O)Nc1ccccc1C)C(=O)c1nn(CC)c(=O)c2ccccc12	-9%	1	-2.8	17	·	·	2
Cc1ccc(NC(=O)C2c3ccccc3Oc3ccccc32)c(C)c1	·	2	-2.6	1.8	1.3	-4	2
CC(=O)N1CCc2cc(Br)cc(S(=O)(=O)NCCN3CCCCC3C)c21 (centres undefined)	31%	14	2.1	-3.4	-1.4	-4	1
CNC(=O)Cn1nc(-c2ccc(C)cc2)c2ccccc2c1=O	7%	-6	-5.1	1.8	-1.6	0	2
CS(=O)(=O)N(CC(=O)Nc1cccc([N+](=O)[O-])c1)c1cccc(F)c1	1%	10	6.1	0.6	1.3	14	-4
COc1cc(SC)ccc1C(=O)NCC1CCCCC1	1%	-8	0.8	1.8	-1.2	4	-3
O=C1CN(C(=O)c2ccco2)c2ccccc2N1	4%	3	-1.5	-1.9	-0.2	3	-10
COc1ccc(S(=O)(=O)N2CCOCC2)cc1NC(=O)CN(C)Cc1c(F)cccc1Cl	-6%	14	1.8	-2.4	0.3	0	-11
CCOC(=O)N1CCC(NC(=O)Cn2cc3c(n2)CCCCC3)CC1	-7%	-3	-8.9	1.3	4.6	-5	-13
CC(=O)NCCC1CCN(C(=O)C2CCC(=O)N(C3CCCC3)C2)CC1 (centres undefined)	0%	-3	3.7	-3.3	-2.6	1	-1
Clc1ccc(C2Nc3ccccc3-n3cccc32)cc1 (centres undefined)	-1%	-4	-0.4	4.5	7.8	24	43
CCCCCCn1c(SCC(=O)Nc2cc(C)on2)nc2ccccc2c1=O	-24%&72%	-8	-3.4	5.7	-1.2	12	0
O=C(Cn1cc2c(n1)CCCCC2)NCCN1CCOCC1	-2%	4	5.4	1.4	-0.2	-5	3
CCOC(=O)C1=C(N)Oc2ccc3ccccc3c2C1c1cccc(O)c1 (centres undefined)	·	1	1.5	-1.5	1.8	3	-15
O=C(CCC1CCCN(C(=O)C2CCCC2)C1)NCc1ccc(F)c(F)c1 (centres undefined)	8%	0	-0.3	-1.3	0.1	13	-1
COc1cc2c(cc1OC)[C@@H]1Cc3ccc(OC)c(OC)c3CN1CC2	-4%	7	2.7	-2.1	-0.5	-8	-10
CCC(C(=O)NC1CC1)n1nc(C)c2c(C)n(-c3ccccc3)nc2c1=O (centres undefined)	·	-6	19*	-2.2	-1.0	-5	-6
CC(O)CNCCCOc1ccc(Cl)cc1C(C)(C)C (centres undefined)	-6%	30	0.9	-4.9	0.0	-4	-22

Arranged by the number under LANA-H2A inh (smallest number first): 7 from the list above.
| SMILES | LANA-H2A inh |
| --- | --- |
| CCCN(CC(=O)Nc1ccccc1C)C(=O)c1nn(CC)c(=O)c2ccccc12 | -2.8 |
| Cc1ccc(NC(=O)C2c3ccccc3Oc3ccccc32)c(C)c1 | -2.6 |
| Cc1ccccc1NC(=O)c1cc(S(=O)(=O)N2CCOCC2)cn1C | -1.6 |
| CCOC(=O)[C@H]1[C@H]2COc3ccc(C)cc3[C@@H]2N2C(=O)CN(Cc3ccc(Cl)cc3)C(=O)[C@@]12C | -0.5 |
| COc1ccc(S(=O)(=O)N2CCOCC2)cc1NC(=O)CN(C)Cc1c(F)cccc1Cl | 1.8 |
| CC(=O)N1CCc2cc(Br)cc(S(=O)(=O)NCCN3CCCCC3C)c21 (centres undefined) | 2.1 |
| CCC(C(=O)NC1CC1)n1nc(C)c2c(C)n(-c3ccccc3)nc2c1=O (centres undefined) | 19* |

Molecules above that contain bromine (two):
structure	Vif A3G	B2AR ag	LANA-H2A inh	HNF4A DNA FP	RanGTP-Impb inh	Calb FLC	ALR H2O2 inh
COc1cccc(-c2noc(-c3ccc(Br)o3)n2)c1	-16%	-4	3.3	3.0	·	-2	-4
CC(=O)N1CCc2cc(Br)cc(S(=O)(=O)NCCN3CCCCC3C)c21 (centres undefined)	31%	14	2.1	-3.4	-1.4	-4	1

The list continues:
structure	Vif A3G	B2AR ag	LANA-H2A inh	HNF4A DNA FP	RanGTP-Impb inh	Calb FLC	ALR H2O2 inh
Cc1cccc(CNC(=O)C2CCC(=O)N(Cc3ccccc3F)C2)n1 (centres undefined)	·	8	·	-0.6	1.7	-4	·
COc1ccc(CCNC(=O)CC2Nc3cc(C)c(C)cc3NC2=O)cc1OC (centres undefined)	?	-24	2.9	8.0	-3.5	12	-3
CN(CC(=O)Nc1ccccc1Cl)C(=O)COC(=O)c1ccc(S(=O)(=O)C(F)F)cc1	3%	1	0.1	3.3	-0.4	-7	-33
Cc1nc(-c2cn[nH]c2-c2ccc(O)cc2O)cs1	·	-1	5.0	0.0	1.1	?	41
CC1CN(S(=O)(=O)c2cccc(C(=O)OCC(=O)Nc3ccc4c(c3)OCO4)c2)CC(C)O1 (centres undefined)	1%	9	-1.6	2.6	·	·	11
Cc1cccc(-c2cc3c(nn2)-c2ccccc2C3=O)c1	28%	2	-1.6	4.0	4.0	-34	-8
CC(C(=O)Nc1ccc(F)cc1Cl)N(C)CCOc1ccccc1 (centres undefined)	-7%	-4	-5.2	-1.5	0.9	-1	5
COc1ccc(Cl)cc1NC(=O)COC(=O)C1CC1	·	4	-2.1	-0.2	·	·	3
NC(=O)c1nn2c(C(F)(F)F)cc(-c3ccccc3)nc2c1Br	·	-9	-2.2	1.1	-9.1	-4	-11
NS(=O)(=O)c1cc(C(=O)OCC(=O)Nc2ccccc2[N+](=O)[O-])ccc1Cl	·	8	1.1	3.4	3.3	6	-2
CCc1nccn1CCC(=O)N1CCCC(N2CCN(c3ccccc3F)CC2)C1 (centres undefined)	·	-2	1.4	1.2	2.3	-1	-9
COc1ccc(-c2cc(C(F)(F)F)nc(S(C)(=O)=O)n2)cc1	-4%	35	-2.6	-3.2	-0.3	-5	·
CCNC(=O)C/C(C)=N/NC(=O)C12CC3CC(CC(C3)C1)C2	4%	15	-5.2	2.8	-3.4	0	2
CCCCCCCCCCCCC/C=C/[C@@H](O)[C@@H](N)CO	·	25	-5.1	29	2.5	38	-4
CC(CNS(=O)(=O)c1ccc(Br)cc1)CN(C)C (centres undefined)	4%	-1	-4.3	2.8	-3.8	-2	-4
NC(N)=Nc1ccc(C=C2C=Cc3ccccc32)cc1	-4%	3	·	2.1	·	·	·
Cc1ccc(NC(=O)c2cccc(S(=O)(=O)N3CCN(C)CC3)c2)cc1F	·	7	4.0	-2.2	5.8	-5	-3
CCCCNC(=O)Cn1nc([N+](=O)[O-])c([N+](=O)[O-])c1C	·	-5	-0.1	1.0	?	-4	-20
CC(CCc1ccccc1)NC(=O)CCNS(=O)(=O)c1ccccc1C(F)(F)F (centres undefined)	-4%	1	-0.3	0.6	·	·	·
O=C(CSC(=S)N1CCCC1)N(Cc1nnc(-c2ccccc2Cl)o1)C1CC1	1%	-3	2.2	-4.4	·	·	0
COc1ccc(-n2c(=S)[nH]c3cc(C(=O)NCc4ccc(F)cc4)ccc3c2=O)c(OC)c1	·	2	-0.1	-0.7	0.8	-4	2
O=C(/C=N/O)Nc1ccc(F)cc1	-2%	7	-3.3	-1.0	-0.3	2	-3
CC(=O)c1ccc(C(C)(C)c2ccc(C(C)=O)s2)s1	9%	1	-3.7	0.2	0.3	6	-8
CC(C)Cc1nnc(NC(=O)CCC(=O)N2CCOCC2)s1	-6%	-1	6.9	2.1	0.6	2	-5

Assay outcomes as filed in PubChem BioAssay.
